rRNA inh HTS = reduced GFP signal of wild-type E. coli, primary screen, bacterial rRNA inhibitor project, GFP/RFP fluorescence, OD600, single point | E. coli WT GFP vs humanized-ribosome RFP mutants, 24 h; hits give low values; DMSO median 0, no signal -100 | GFP signal change (wild-type ribosome), % (test concentration not listed) | hit rate 1.6% among 350,000 | AID 720706, 2013;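 active = significant combined selectivity score with lowered wild-type GFP, culture density cut under 30%, mutant RFP and density less affected; inactive = any of these conditions unmet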; also: one replicate is shown; some compounds called inactive have numbers as strong as hits
rRNA inh HTS OD600 = also measured in rRNA inh HTS; calls as there; OD600 change, %; measured here: OD600 growth;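 optical density of the mix in the first replicate; 0 = DMSO median and -100 = no signal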
rRNA inh HTS RFP = recorded beside rRNA inh HTS, whose call it bears; RFP signal change, %; measured here: RFP humanized mutant strains;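 first replicate; 0 = DMSO median and -100 = no signal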
An asterisk follows results filed as active. Only part of the results is shown; count on the stated rates, not on these rows.

smiles,rRNA inh HTS,rRNA inh HTS OD600,rRNA inh HTS RFP
CNC(=O)C[C@@H]1CC[C@@H]2[C@H](COc3ccc(NC(=O)Nc4cccc(F)c4)cc3C(=O)N2C)O1,-1.4,0.4,-0.1
C/C=C/c1ccc([C@H]2[C@@H](CO)N(CC3CCCC3)[C@H]2CNC(=O)NC(C)C)cc1,-1.7,-2.1,-1.3
C[C@@H]1CN([C@@H](C)CO)C(=O)c2cc(NS(=O)(=O)c3ccc(Cl)cc3)ccc2O[C@H]1CN(C)C(=O)Nc1ccc(C(F)(F)F)cc1,-1.7,-16.4,-1.7
C[C@H](CO)N1C[C@H](C)[C@H](CN(C)C(=O)c2ccncc2)Oc2ncc(C#CC3CC3)cc2C1=O,1.1,-3.7,-1.2
O=C(c1ccncc1)N1CC(=O)N2[C@H](CO)[C@H](c3ccc(C#CCC4CCCC4)cc3)[C@H]2C1,3.3,-26.6,11.2
CCCNC(=O)N1[C@H](CNC(C)=O)[C@H](c2ccccc2)[C@@H]1CO,1.4,18.9,0.0
Cc1noc(C)c1NC(=O)Nc1ccc2c(c1)C(=O)N([C@@H](C)CO)C[C@H](C)[C@@H](CN(C)Cc1ccc(Cl)c(Cl)c1)O2,1.0,-10.2,0.1
COc1cccc(-c2cnc3c(c2)C(=O)N([C@@H](C)CO)C[C@@H](C)[C@@H](CN(C)CC2CC2)O3)c1,0.5,0.0,-2.2
C[C@H](CO)N1C[C@H](C)[C@@H](CN(C)Cc2ccc(-c3ccccc3)cc2)Oc2c(NC(=O)Nc3cccc4ccccc34)cccc2C1=O,-11.6,-30.9,1.8
CC(=O)N(C)C[C@@H]1Oc2ccc(N(C)C)cc2C(=O)N(C)C[C@@H]1C,-2.0,2.8,-0.4
CCCC#Cc1ccc2c(c1)[C@@H]1[C@@H](CCN1Cc1cncnc1)[C@@H](CO)N2,8.0,19.8,-1.4
COc1ccc(CN(C)C[C@H]2OCCCC[C@H](C)Oc3ccc(NS(C)(=O)=O)cc3C(=O)N([C@H](C)CO)C[C@@H]2C)cc1,-1.5,0.7,0.2
Cc1noc(C)c1S(=O)(=O)N1[C@@H]2CNC[C@H]1C2c1ccc(-c2cccc(F)c2)cc1 (stereo partly specified),-1.4,8.9,3.6
C[C@H](CO)N1C[C@H](C)[C@@H](CN(C)S(=O)(=O)c2cn(C)cn2)Oc2c(NC(=O)Nc3ccc(F)cc3)cccc2C1=O,1.3,9.7,0.5
CCS(=O)(=O)Nc1ccc2c(c1)C(=O)N(C)C[C@H](OC)[C@H](C)CN(C(=O)C1CCC1)[C@@H](C)CO2,1.2,7.4,-2.6
CO[C@H]1CN(C)C(=O)c2ccc(NC(=O)Nc3ccc(Cl)cc3)cc2OC[C@@H](C)NC[C@@H]1C,-3.6,-3.6,6.2
Cc1ccc(S(=O)(=O)N(C)C[C@@H]2Oc3ccc(NS(=O)(=O)c4cn(C)cn4)cc3CC(=O)N([C@H](C)CO)C[C@H]2C)cc1,5.9,6.6,-1.1
Cc1ccc(S(=O)(=O)Nc2ccc3c(c2)C(=O)N([C@H](C)CO)C[C@@H](C)[C@@H](CN(C)Cc2ccc(Oc4ccccc4)cc2)O3)cc1,-0.8,-10.4,6.5
C[C@@H]1CN([C@@H](C)CO)S(=O)(=O)c2ccc(C#CC3CC3)cc2O[C@H]1CN(C)C(=O)Nc1cc(F)ccc1F,-5.6,-7.5,-0.8
CCCNC(=O)Nc1ccc2c(c1)C(=O)N(C)C[C@@H](OC)[C@@H](C)CN(CC1CCCC1)[C@@H](C)CO2,0.8,-6.7,-0.5
C[C@@H]1CN([C@@H](C)CO)C(=O)CCCn2cc(nn2)CO[C@@H]1CN(C)C(=O)c1ccccc1,1.3,-4.6,-0.1
CC(C)NC(=O)N(C)C[C@@H]1Oc2ccccc2C(=O)N(C)C[C@@H]1C,-3.3,5.6,-3.1
CO[C@@H]1CN(C)C(=O)c2cc(NS(C)(=O)=O)ccc2OC[C@H](C)N(CC2CCOCC2)C[C@H]1C,1.2,-2.7,-2.7
C[C@H](CO)N1C[C@H](C)[C@H](CN(C)S(=O)(=O)c2cn(C)cn2)Oc2ccc(NC(=O)Nc3ccc(F)cc3)cc2CC1=O,0.9,13.0,2.5
CN(C[C@H]1[C@H](c2ccccc2)[C@@H](CO)N1C(=O)C1CC1)C(=O)c1ccccn1,3.8,12.9,1.6
CCCC(O)C#Cc1cnc2c(c1)C(=O)N([C@H](C)CO)C[C@H](C)[C@H](CN(C)Cc1ccc(F)cc1)O2 (stereo partly specified),5.9,12.1,-1.5
CC(C)CC#Cc1ccc([C@@H]2[C@@H](CO)N3C(=O)CN(S(C)(=O)=O)C[C@H]23)cc1,3.1,1.7,5.2
CN1C(=O)c2cc(NC(=O)C3CCCC3)ccc2OC[C@H]2O[C@H](CC(=O)NCc3ccccc3F)CC[C@H]21,0.5,6.2,-1.7
C[C@H](CO)N1C[C@H](C)[C@@H](CN(C)C(=O)Nc2ccc3c(c2)OCO3)Oc2ccc(NS(=O)(=O)c3ccc(F)cc3)cc2CC1=O,-2.5,-5.3,1.5
COCCN(C[C@H]1[C@H](c2ccccc2)[C@@H](CO)N1C(=O)C1CCC1)C(C)=O,3.1,-1.0,-1.1

Looked up by compound from the list above:
smiles,rRNA inh HTS,rRNA inh HTS OD600,rRNA inh HTS RFP
COCCN(C[C@H]1[C@H](c2ccccc2)[C@@H](CO)N1C(=O)C1CCC1)C(C)=O,3.1,-1.0,-1.1
C[C@@H]1CN([C@@H](C)CO)S(=O)(=O)c2ccc(C#CC3CC3)cc2O[C@H]1CN(C)C(=O)Nc1cc(F)ccc1F,-5.6,-7.5,-0.8

Next section:
smiles,rRNA inh HTS,rRNA inh HTS OD600,rRNA inh HTS RFP
C[C@@H](O)C#Cc1ccc2c(c1)O[C@H](CN(C)CC1CC1)[C@@H](C)CN([C@@H](C)CO)S2(=O)=O,-0.3,-0.1,-4.1
CNC[C@H]1Oc2ccc(NC(=O)NC(C)C)cc2CC(=O)N(C)C[C@H]1C,0.9,7.2,-0.8
COc1ccc2c3c(n(C)c2c1)[C@@H](CO)NCC31CCN(Cc2ccc(Cl)cc2)CC1,-5.1,-7.3,3.9
CCCC#Cc1cnc2c(c1)C(=O)N([C@H](C)CO)C[C@H](C)[C@@H](CN(C)C(=O)C1CCCCC1)O2,2.3,2.9,1.2
C[C@@H]1COCc2cn(nn2)CCCC(=O)N1,-2.0,2.9,-2.9
CC(C)NC[C@@H]1[C@@H](c2ccc(C3=CCCCC3)cc2)[C@@H](CO)N1C(=O)CC1CC1,-1.9,5.0,6.3
C[C@H]1CN([C@@H](C)CO)C(=O)CCCn2cc(nn2)CO[C@H]1CN(C)C(=O)Nc1ccc2c(c1)OCO2,1.1,3.1,-0.3
Cc1noc(C)c1S(=O)(=O)N(C)C[C@H]1OCCCC[C@H](C)Oc2ccc(NC(=O)NC3CCCCC3)cc2C(=O)N([C@H](C)CO)C[C@H]1C,0.2,-3.0,1.4
C[C@@H]1CN([C@@H](C)CO)C(=O)c2cc(C#Cc3ccccn3)cnc2O[C@H]1CN(C)Cc1ccccc1,5.4,5.8,-3.6
CCCNC(=O)N1C[C@@H]2[C@H](c3ccccc31)[C@H](CO)N2C(=O)c1ccccc1,4.4,16.1,-1.5
O=C(C1CCC1)N1CC[C@@H]2[C@H]1c1cc(-c3cccc(F)c3)ccc1N[C@@H]2CO,-52.5,-75.7,-10.6
C[C@@H]1CN(C)C(=O)Cc2ccccc2O[C@@H]1CN(C)C,0.2,4.7,0.7
O=C(NC[C@H]1[C@H](c2ccccc2)[C@H](CO)N1C(=O)Cc1cccnc1)C1CCC1,2.6,1.5,0.3
C/C=C/c1ccc2c(c1)O[C@H](CN(C)C(=O)C1CC1)[C@@H](C)CN([C@H](C)CO)S2(=O)=O,0.2,-11.1,-2.6
C[C@@H]1CN([C@@H](C)CO)C(=O)Cc2cc(NC(=O)Nc3ccc(C(F)(F)F)cc3)ccc2O[C@H]1CN(C)S(=O)(=O)c1ccc(F)cc1,-1.1,0.3,0.6
C[C@@H]1CN([C@H](C)CO)C(=O)CCCn2cc(nn2)CO[C@@H]1CN(C)C(=O)c1cc(-c2ccccc2)on1,-5.5,-1.5,0.3
CC[C@H]1C/C=C\C[C@@H](c2ccc(OC)cc2OC)NC(=O)[C@H](C)CC(=O)N1,5.1,29.5,2.6
C[C@@H]1CN([C@H](C)CO)C(=O)c2cc(N(C)C)ccc2O[C@@H](C)CCCCO[C@@H]1CN(C)C(=O)Nc1ccc2c(c1)OCO2,0.6,2.5,-0.2
CCCC#Cc1cnc2c(c1)C(=O)N([C@@H](C)CO)C[C@@H](C)[C@H](CN(C)Cc1ccccc1F)O2,-19.8,-28.7,-4.8
CO[C@@H]1CN(C)C(=O)c2ccc(NC(=O)c3nc4ccccc4s3)cc2OC[C@@H](C)N(Cc2cccnc2)C[C@@H]1C,-28.2,-51.5,-7.3
CO[C@H]1CN(C)C(=O)c2ccc(NC(C)=O)cc2OC[C@H](C)N(Cc2cncnc2)C[C@@H]1C,1.7,2.3,-0.4
O=C(NC[C@H]1[C@@H](c2ccccc2)[C@@H](CO)N1CC1CCCC1)c1cccnc1,-0.6,0.8,2.4
C/C=C/c1ccc([C@H]2[C@H](CO)N(S(=O)(=O)Cc3ccccc3)C23CN(C(=O)C2CCOCC2)C3)cc1,0.9,-1.6,1.7
C[C@H]1CN([C@@H](C)CO)S(=O)(=O)c2ccc(-c3cccnc3)cc2O[C@@H]1CN(C)C(=O)C1CC1,5.7,-7.2,0.3
CNC[C@H]1Oc2ccc(N(S(C)(=O)=O)S(C)(=O)=O)cc2C(=O)N(C)C[C@@H]1C,-2.9,18.1,-0.6
Cc1ccc(S(=O)(=O)Nc2cccc3c2O[C@H](CN(C)C(=O)Nc2cccc4ccccc24)[C@@H](C)CN([C@H](C)CO)C3=O)cc1,-0.5,-6.9,-2.2
CO[C@H]1CN(C)C(=O)c2ccc(NC(C)=O)cc2OC[C@@H](C)N(Cc2cccnc2)C[C@@H]1C,-0.9,-7.1,-0.9
CN(C)C(=O)c1ccc(-c2ccc3c(c2)[C@@H]2[C@@H](CCN2Cc2ccncc2)[C@@H](CO)N3)cc1,4.1,17.9,2.3
CCC(=O)NC[C@H]1[C@@H](c2ccc(C3=CCCC3)cc2)[C@H](CO)N1C(=O)C1CC1,0.6,-2.4,-2.8
C[C@H]1CN(C)C(=O)Cc2cc(N(C)C)ccc2O[C@H]1CN(C)C(=O)OC(C)(C)C,1.3,4.6,-0.9

In the list so far, two have two or more sulfur atoms:
smiles,rRNA inh HTS,rRNA inh HTS OD600,rRNA inh HTS RFP
Cc1ccc(S(=O)(=O)N(C)C[C@@H]2Oc3ccc(NS(=O)(=O)c4cn(C)cn4)cc3CC(=O)N([C@H](C)CO)C[C@H]2C)cc1,5.9,6.6,-1.1
CNC[C@H]1Oc2ccc(N(S(C)(=O)=O)S(C)(=O)=O)cc2C(=O)N(C)C[C@@H]1C,-2.9,18.1,-0.6

The list continues:
mol,rRNA inh HTS,rRNA inh HTS OD600,rRNA inh HTS RFP
CO[C@@H]1CN(C)C(=O)c2ccc(NC(=O)c3cnccn3)cc2OC[C@@H](C)N(C)C[C@H]1C,2.2,1.7,0.1
C[C@@H]1CN(C)C(=O)c2cccc(N(C)C)c2O[C@H]1CN(C)C(=O)OC(C)(C)C,-3.3,-6.0,-0.5
C[C@@H]1CCCCO[C@@H](CN(C)Cc2ccc(C(=O)Nc3ccccc3N)cc2)[C@@H](C)CN([C@@H](C)CO)C(=O)c2cc(N(C)C)ccc2O1,3.8,13.2,0.8
CC(=O)N1C[C@H]2[C@@H](c3ccccc31)[C@H](CO)N2S(=O)(=O)c1ccccc1,2.5,4.2,-1.1
O=C(Cc1ccccc1)N1CC2(C1)[C@@H](c1ccccc1)[C@@H](CO)N2C(=O)c1cccnc1,0.0,0.0,-2.1
C[C@@H]1CCCCO[C@H](CN(C)S(C)(=O)=O)[C@H](C)CN([C@@H](C)CO)C(=O)c2cc(NC(=O)Cc3ccccc3)ccc2O1,-2.8,-11.1,2.2
COc1ccc(C[C@@H]2CCn3cc(nn3)COC[C@@H](Cc3ccccc3)NC2=O)cc1,1.9,5.1,-3.4
C[C@@H]1CN([C@H](C)CO)C(=O)c2cc(NS(=O)(=O)c3ccccc3)ccc2O[C@@H]1CN(C)S(=O)(=O)c1ccc(F)cc1,-1.5,-4.5,3.0
C[C@H]1CN([C@@H](C)CO)C(=O)c2cc(/C=C/c3ccccc3)cnc2O[C@H]1CN(C)C(=O)C1CC1,1.1,-0.3,-1.2
CC(C)NC(=O)N1[C@@H](CO)[C@H](c2ccccc2)[C@@H]1CN(C)C(=O)c1ccncc1,2.6,11.0,-2.2
CC(C)NC(=O)N(C)C[C@@H]1Oc2c(N)cccc2C(=O)N(C)C[C@@H]1C,4.4,11.3,0.3
COc1ccc(-c2cnc3c(c2)C(=O)N([C@@H](C)CO)C[C@H](C)[C@H](CN(C)S(=O)(=O)c2ccc(OC)cc2)O3)cc1,0.3,2.0,0.7
CO[C@@H]1CN(C)C(=O)c2cc(NS(C)(=O)=O)ccc2OC[C@H](C)N(C(=O)NC(C)C)C[C@@H]1C,1.8,-2.6,0.9

One compound at a time, from the list above. Order of values: rRNA inh HTS	rRNA inh HTS OD600	rRNA inh HTS RFP
O=C(Cc1ccccc1)N1CC2(C1)[C@@H](c1ccccc1)[C@@H](CO)N2C(=O)c1cccnc1 across the screens: 0.0	0.0	-2.1
C[C@@H]1CN([C@H](C)CO)C(=O)c2cc(NS(=O)(=O)c3ccccc3)ccc2O[C@@H]1CN(C)S(=O)(=O)c1ccc(F)cc1 across the screens: -1.5	-4.5	3.0
COc1ccc(C[C@@H]2CCn3cc(nn3)COC[C@@H](Cc3ccccc3)NC2=O)cc1 across the screens: 1.9	5.1	-3.4

Bioassay records as filed in PubChem.
